Bioassay records deposited in PubChem by Broad Institute.
STK33 kinase inh – inhibitors of purified STK33 kinase, primary screen, biochemical, ADP-Glo luminescence, homogeneous, cell-free. MBP phosphorylation. Serine/threonine-protein kinase 33 (Homo sapiens), Q9BYT3. 0.073% of 320,000 active. inhibition, % at 10 µM;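 active means inhibition at or above 25%, using the most active replicate where run in duplicate; inactive means inhibition below 25%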
Target sequence (Q9BYT3 whole entry, looked up): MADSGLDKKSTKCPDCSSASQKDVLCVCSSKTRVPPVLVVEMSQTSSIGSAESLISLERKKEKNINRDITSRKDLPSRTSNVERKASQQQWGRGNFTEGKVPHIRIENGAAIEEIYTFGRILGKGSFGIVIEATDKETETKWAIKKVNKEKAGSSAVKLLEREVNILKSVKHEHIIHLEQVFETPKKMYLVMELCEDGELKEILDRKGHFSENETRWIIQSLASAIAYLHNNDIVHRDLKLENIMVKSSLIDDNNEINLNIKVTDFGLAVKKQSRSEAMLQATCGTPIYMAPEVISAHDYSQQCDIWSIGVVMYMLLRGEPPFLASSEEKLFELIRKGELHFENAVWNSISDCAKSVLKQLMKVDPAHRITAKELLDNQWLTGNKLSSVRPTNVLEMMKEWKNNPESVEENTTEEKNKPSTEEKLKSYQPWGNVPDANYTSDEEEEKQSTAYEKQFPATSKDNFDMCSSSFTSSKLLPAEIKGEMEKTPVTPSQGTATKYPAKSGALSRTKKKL
An asterisk follows results filed as active.

item	mol	STK33 kinase inh
1	CC(C)CCC(C(=O)O)C(C)CC(=O)NC1CCCCC1 (configuration not stated)	-0.8
2	N#Cc1sc2nc(C3CC3)cc(-c3ccc(Cl)cc3)c2c1N	-0.7
3	Cc1nnc2sc(SCC(=O)N3CCC(C)CC3)nn2c1=O	-2.0
4	CNCC/C=C1/c2ccccc2CSc2ccccc21	-1.9
5	O=C(Cn1cc(C(F)(F)F)ccc1=O)N/N=C/c1ccccc1	-1.3
6	Cc1ccc(S(=O)(=O)N(CC(=O)N/N=C/c2ccccc2C(=O)O)c2cc(Cl)cc(Cl)c2)cc1	-0.1
7	COc1ccc(NC2CCCN(C(=O)C3(C)CCCCC3)C2)cc1OC (configuration not stated)	0.2
8	Cc1cc(-c2n[nH]c(=S)n2/N=C/c2cccc([N+](=O)[O-])c2)n[nH]1	1.0
9	Cc1onc(-c2c(Cl)cccc2Cl)c1C(=O)N1CCN(c2ccc(F)cc2)CC1	-0.3
10	COC(=O)c1ccccc1NC(=O)COC(=O)[C@H](C)NC(N)=O	1.8
11	CCOC(=O)N1CCN(C(=O)c2ccccc2NC(=O)c2ccc(F)cc2)CC1	1.7
12	CCc1ccc(C(=O)NNc2ccc(F)cc2)cc1	0.9
13	COc1ccc(C(=O)NCC2CCCO2)cc1S(=O)(=O)N1CCCc2ccccc21 (configuration not stated)	-1.2
14	O=C(O)C1CCN(S(=O)(=O)/C=C/c2ccccc2)CC1	-1.7
15	CC(C(=O)NC1CCCC1)N(C(=O)Cn1nnc(-c2ccc(F)cc2)n1)c1ccccc1F (configuration not stated)	1.0
16	CN1C(=O)/C(=C/c2ccccc2OCc2cccc(F)c2)NC1=S	0.4
17	CC(=O)Oc1c(-c2ccc(Br)o2)oc2ccccc2c1=O	4.1
18	CCOc1ccc(NC(=O)Nc2cccn(Cc3ccccc3)c2=O)cc1	5.6
19	COCc1nnc(NC(C)=O)s1	0.7
20	Cc1ccc(-n2c(=O)c3sccc3n(Cc3cc(=O)n4ccccc4n3)c2=O)cc1	-2.1
21	C=CCn1c(SCC(=O)c2cc(C)n(C(C)COC)c2C)nc2sc(C)c(C)c2c1=O (configuration not stated)	-0.4
22	Cc1ccc(C(=O)NCCC(=O)Nc2ccccc2C)cc1	-1.8
23	CC(=O)Nc1nc(N2C(=O)c3ccccc3C2=O)n(-c2ccccc2)n1	-0.3
24	O=C(CSc1nc2ncccc2[nH]1)Nc1c(F)cc(F)cc1Br	-1.8
25	O=C(O)c1nccnc1C(=O)Nc1ccc(Cl)cc1Cl	-1.7
26	CCCC[C@@H]1CNCCN1CCCc1cc(OC)c(OC)c(OC)c1	-1.9
27	O=C(CSc1nccc(=O)[nH]1)Nc1ccc(N2CCOCC2)c(Cl)c1	0.7
28	Cc1ccc(SC(c2ccccc2)C(Cn2cncn2)C(=O)c2ccccc2)cc1 (configuration not stated)	-1.8
29	COc1ccc(/C(C)=N/N2C(=O)c3ccccc3NC2c2ccc(O)c(OC)c2)cc1 (configuration not stated)	-0.7
30	CCCCN(C(=O)CSc1cc(C)c2ccccc2n1)c1c(N)n(Cc2ccccc2)c(=O)[nH]c1=O	-1.3
31	Cc1ccc(C(=O)N/N=c2\sc3ccccc3n2C)cc1	-1.2
32	CCc1ccc2oc(-c3cccc(NC(=O)c4cccnc4)c3)nc2c1	7.3
33	CCOc1ccc(S(=O)(=O)N2CCCCC2)cc1NC(=O)Cc1cccs1	1.0
34	CCn1c(C)nc2cc(N)ccc21	-1.5
35	O=C(COC(=O)c1ccc(-c2cnc3ccccc3n2)cc1)c1ccccc1	-0.7
36	COc1ccc(S(=O)(=O)N(CC(=O)O)c2ccc(C)cc2)cc1	-1.0
37	CC(=O)N1CCC(N(CCCOC(C)C)C(=O)Nc2ccc(C)c(C)c2)CC1	1.0
38	CC(C)N(Cc1ccccc1)C(=O)c1cccs1	-0.3
39	Cc1ccccc1NC1=C(Cl)C(=O)OC1OC(=O)c1ccccc1C (configuration not stated)	-1.1
40	CCOc1cc(C2C(C#N)=C(N)OC3CCCC(=O)C32)ccc1OCCN1CCOCC1 (configuration not stated)	-1.6
41	O=S(=O)(NCCSc1nnc(-c2ccco2)n1-c1ccccc1)c1ccccc1	0.5
42	O=C(Nc1ccc2nc(-c3ccco3)c(-c3ccco3)nc2c1)N1CCCCCC1	5.1
43	CCOc1ccccc1NC(=O)COc1coc(CN2CCc3ccccc3C2)cc1=O	-2.0
44	COc1ccc(NC(=O)c2cccc(OS(=O)(=O)N(C)C)c2)cc1	0.3
45	CCOC(=O)c1ccc(NC(=O)Cc2coc3cc4c(cc23)CCC4)cc1	1.4
46	O=S(=O)(c1cccc(S(=O)(=O)N2CCOCC2)c1)N1CCCCC1	-6.0
47	COc1ccc(CCNS(=O)(=O)c2cn(C)nc2C)cc1	-0.6
48	O=C(CCSc1nnc(-c2ccncc2)o1)Nc1cccc2ccccc12	0.2
49	CC(C(=O)N1CCCc2ccccc21)N1CCN(S(=O)(=O)c2ccccc2F)CC1 (configuration not stated)	0.5
50	CCOC(=O)c1c(C)[nH]c(C(=O)CSc2nnnn2-c2ccccc2)c1C	-1.8

Next compounds follow:
item	mol	STK33 kinase inh
51	COc1cc(OC)c(S(=O)(=O)NC(C)C)cc1C(=O)O	-0.7
52	CCn1c(SCC(=O)Nc2nc(C)cs2)nnc1-c1ccoc1C	-0.4
53	Cc1ccc(C(=O)N2CCCC(N3CCN(c4cccc(C(F)(F)F)c4)CC3)C2)s1 (configuration not stated)	-0.8
54	COc1cc2c(cc1OC)C(C)N(C(=O)c1ccc(Cl)c(S(=O)(=O)N3CCCCC3)c1)CC2 (configuration not stated)	-1.5
55	Cc1cc(Nc2ccccc2)n(C(=O)c2ccccc2)n1	-0.1
56	N#Cc1cncc(-c2ccc3c(c2)OCCOCCOCCOCCOCCO3)n1	3.4
57	CCN(CC)c1ccc(/C=N/NC(=O)Cc2cccs2)cc1	-1.7
58	Cc1nc2scc(C)n2c(=O)c1S(=O)(=O)Nc1ccc(N2CCOCC2)c(Cl)c1	-0.1
59	O=C(COc1ccccc1)NCC(=O)Nc1ccncc1	0.9
60	COc1cccc(-c2csc(NC(=O)Nc3ccccc3)n2)c1	0.1

The list goes on (7 carried over from the part before).
item	mol	STK33 kinase inh
54	COc1cc2c(cc1OC)C(C)N(C(=O)c1ccc(Cl)c(S(=O)(=O)N3CCCCC3)c1)CC2 (configuration not stated)	-1.5
55	Cc1cc(Nc2ccccc2)n(C(=O)c2ccccc2)n1	-0.1
56	N#Cc1cncc(-c2ccc3c(c2)OCCOCCOCCOCCOCCO3)n1	3.4
57	CCN(CC)c1ccc(/C=N/NC(=O)Cc2cccs2)cc1	-1.7
58	Cc1nc2scc(C)n2c(=O)c1S(=O)(=O)Nc1ccc(N2CCOCC2)c(Cl)c1	-0.1
59	O=C(COc1ccccc1)NCC(=O)Nc1ccncc1	0.9
60	COc1cccc(-c2csc(NC(=O)Nc3ccccc3)n2)c1	0.1
61	CS(=O)(=O)N1CCN(C(=O)CCC2CCCC2)CC1	-1.4
62	Cc1ccccc1CC1S/C(=N/N=C/c2ccco2)NC1=O (configuration not stated)	-1.2
63	Cc1[nH]c2ccccc2c1C(=O)CSc1nccc(=O)[nH]1	0.0
64	O=C(NC1CCCC1)C(c1ccncc1)N(C(=O)c1csnn1)c1ccccc1F (configuration not stated)	1.5
65	O=C(N/N=C/c1ccccc1Cl)c1ccncc1	-1.4
66	CC1(C)Cc2c(c(N3CCOCC3)nc3snc(N)c23)CO1	-1.0
67	COc1cccc(-c2ncc3ccccn23)c1	0.1
68	COC(=O)c1ccc(CNC(=O)c2ccc3c(c2)OCCO3)cc1	-0.1
69	O=S(=O)(c1ccc(S(=O)(=O)N(Cc2ccco2)Cc2ccccc2Cl)cc1)N1CCCC1	0.3
70	COc1ccc(NC(=O)/C(=C\c2ccc(OS(=O)(=O)c3ccc(C)cc3)cc2)NC(=O)c2ccccc2)cc1	-0.4
71	O=C1C=C(NCCc2ccccc2)C2(CCCCC2)O1	-0.1
72	CC1CC1C(=O)OCC(=O)NCc1ccc(Cl)cc1Cl (configuration not stated)	0.4
73	CCOC(=O)CC(=O)CSc1nc2c(sc(=S)n2-c2ccc(C)c(C)c2)c(=O)[nH]1	-0.4
74	COc1ccc(C)cc1NC(=O)C1CCN(C(=O)Cc2ccccc2)CC1	-1.2
75	COCc1cc(=O)[nH]c2cc(NC(=O)C(F)(F)F)c(C)cc12	-1.1
76	CN(C(=O)/C=C/c1ccccc1)C1CCCCC1	-1.5
77	COc1ccc(OCC(O)CNS(=O)(=O)c2cccc(Cl)c2)cc1 (configuration not stated)	-1.3
78	O=C(CSc1nnc(C2COc3ccccc3O2)o1)N1CCCC1 (configuration not stated)	-0.7
79	O=C(NCc1cccc(Cl)c1)c1ccc2nc(N3CCOCC3)sc2c1	-1.2
80	Cc1ccccc1C(NC(N)=O)c1ccccc1 (configuration not stated)	-0.7
81	COc1ccc(CNc2oc(COc3ccccc3Cl)nc2C#N)cc1	-1.5
82	O=C(OCCN1CCOCC1)C1(c2ccccc2)CCCCC1	-3.4
83	O=C(NC1CCCCC1)C(c1ccc(F)cc1)N(Cc1cccs1)C(=O)CN1C(=O)c2ccccc2S1(=O)=O (configuration not stated)	-1.7
84	Cc1cc(-c2nnc(SCC(=O)c3ccc(Cl)cc3)o2)no1	-0.7
85	O=C(Nc1nc(-c2ccc(Cl)s2)cs1)c1ccco1	-1.2
86	CCC(=O)OCc1c(C(F)(F)F)nn(C)c1Sc1ccc(Cl)cc1	-1.4
87	CCCn1c(SCC(=O)N2CCCc3ccccc32)nnc1-c1ccccn1	-1.7
88	Cc1ccsc1/C=C1/NC(=O)N(Cc2ccc(F)cc2)C1=O	-0.5
89	FC(F)(F)c1nnc2ccc(NCc3ccccc3)nn12	0.8
90	O=C(O)CC(Cc1ccc(Br)cc1)C(=O)Nc1ccccc1 (configuration not stated)	-2.8
91	O=C(Cc1c(Cl)cccc1Cl)N/N=C/c1cccnc1	0.6
92	Cc1ccc(S(=O)(=O)N(Cc2ccc(Cl)cc2)c2ccccc2C(=O)NCc2ccco2)cc1	-3.7
93	O=C(Nc1ccc(Oc2ccccc2)nc1)C1CCCCN1Cc1ccc(O)cc1 (configuration not stated)	-0.8
94	C/C(=N\NC(=O)c1cc(Br)ccc1O)c1cccc(NC(=O)c2ccccc2F)c1	-0.7
95	Cc1cccc(NC(=O)c2sc(Cl)nc2C)c1C	-0.8
96	Cc1ccc(C(=O)NCC(=O)OCC(=O)/C=C2\N(C)c3ccccc3C2(C)C)cc1C	0.7
97	CCCCC(CC(O)COCC(C)C)C(=O)NNC(=S)Nc1ccccc1 (configuration not stated)	-0.2
98	COc1ccc(C(=O)NNC(=O)Cc2nc3nc(C)cc(C)n3n2)cc1	0.6
99	CC1CN(CC(O)COC2CCC(C(C)(C)C)CC2)CC(C)O1 (configuration not stated)	-0.7
100	COC(=O)c1c(NC(=O)C2C3CCC(C3)C2C(=O)O)sc2c1CCCCC2 (configuration not stated)	-0.9
101	CN1/C(=C/c2cccc[n+]2C)Sc2ccccc21	-0.8
102	Cc1cc(C)nc(Sc2c(F)c(F)c(C(F)(F)F)c(F)c2F)n1	-0.3
103	O=CN1CCN(C(=O)c2ccccc2Cl)CC1	-1.4
104	CCN1C(=O)c2cccc3c(S(=O)(=O)Nc4ccccc4O)ccc1c23	0.0
105	O=C(NC1CCCCC1)C(c1cccs1)N(C(=O)c1ccccn1)c1ccccc1 (configuration not stated)	-2.1
106	Cc1ccc(NC(=O)c2cc(S(=O)(=O)N(C)C)ccc2N2CCCC2)cc1F	-2.6
107	CN(C)CCCNC(=S)N1CCC(c2nc3ccccc3[nH]2)CC1	-0.8
108	CCCC(CCC)C(=O)Nc1cccc(-c2cn3c(n2)SCC3)c1	0.9
109	Cc1ccc(NC(=O)CCS(=O)(=O)c2cc3[nH]c(=O)c(=O)[nH]c3cc2C)cc1	0.1
110	O=C(O)/C=C/c1coc2ccccc2c1=O	0.2

(more compounds)
item	mol	STK33 kinase inh
111	C=CCOC(=O)/C(=C\C=C\c1ccccc1)NC(=O)c1ccccc1	-0.2
112	Cc1c(C(=O)NCCO)sc2nc3n(c(=O)c12)CCC3	-1.0
113	CCOc1ccc(S(=O)(=O)Nc2cccc(C(=O)N3CCN(C(C)=O)CC3)c2)cc1	-0.5
114	CC(=O)c1cccc(NC(=O)COC(=O)COc2ccc(Cl)cc2)c1	1.0
115	CCC(=O)N(Cc1cccs1)C1CCOC(C)(C)C1 (configuration not stated)	0.0
116	COCCCN(C(=S)NC(=O)C(C)(C)C)c1c(N)n(Cc2ccccc2)c(=O)[nH]c1=O	-1.1
117	Cc1ccc(C(=O)/C=C/c2ccc3ncccc3c2)cc1	0.5
118	Clc1ccccc1CSC1=NCCN1	-0.8
119	CCC(=O)Nc1c2c(nn1-c1cccc(Cl)c1)CS(=O)(=O)C2	0.2
120	CC(C)(C)C(Cn1ccnc1)NC(=O)c1ccc2nc(C3CC3)oc2c1 (configuration not stated)	-0.8

Among those listed so far, 3 have a tert-butyl group.
item	mol	STK33 kinase inh
99	CC1CN(CC(O)COC2CCC(C(C)(C)C)CC2)CC(C)O1 (configuration not stated)	-0.7
116	COCCCN(C(=S)NC(=O)C(C)(C)C)c1c(N)n(Cc2ccccc2)c(=O)[nH]c1=O	-1.1
120	CC(C)(C)C(Cn1ccnc1)NC(=O)c1ccc2nc(C3CC3)oc2c1 (configuration not stated)	-0.8

Next structures follow.
item	mol	STK33 kinase inh
121	O=C(O)c1ccccc1C(=O)NCc1c(Cl)cccc1Sc1ccc(Cl)cc1	-3.6
122	CCn1c(SCC(=O)NC2=NCCS2)nnc1C(C)NC(=O)c1ccccc1Br (configuration not stated)	0.2
123	CCCCn1c(SCC(=O)c2ccc3c(c2)OCCO3)nnc1-c1ccoc1C	-1.0
124	Cc1nc(Nc2ccc(F)cc2)[nH]c(=O)c1CCC(C)C	-2.8
125	CNC(=O)c1cc(C(=O)c2ccc(F)cc2Cl)c[nH]1	0.6
126	COc1cccc(CN2CCNC(=O)C2CC(=O)N2CCOc3ccccc3C2)c1OC (configuration not stated)	0.7
127	O=C(/C=C/c1ccc(Cl)cc1)NCCCN1CCOCC1	0.1
128	CC1(C)C(=O)NCCN1C(=O)CC1C(=O)NCCN1CC(c1ccccc1)c1ccccc1 (configuration not stated)	12
129	CCCN(CC1CCCO1)C(=O)c1cc(COc2cccc(OC)c2)on1 (configuration not stated)	-0.9

Some of the compounds tested; most or all hits stand in other tables.
